GLA inh pH 4.5 – qHTS Assay for Inhibitors of Human alpha-Galactosidase at pH 4.5; activity change, negative = inhibition, % at 105 µM; Alpha-galactosidase A (Homo sapiens), P06280; AID 1467, 2008; purified enzyme, 4-MU-alpha-Gal fluorescence, pH 4.5; 230,000 tested, under 10 active; inconclusive = small, poorly fitted or top-dose-only inhibition, or a rising curve; inactive = flat fitted curve, though single readings scatter; no compound was filed as active;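 note: 0% = full activity with enzyme and -100% = basal without enzyme; dose as in the result columns while the protocol names 77 µM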
Target sequence (P06280 whole entry, looked up): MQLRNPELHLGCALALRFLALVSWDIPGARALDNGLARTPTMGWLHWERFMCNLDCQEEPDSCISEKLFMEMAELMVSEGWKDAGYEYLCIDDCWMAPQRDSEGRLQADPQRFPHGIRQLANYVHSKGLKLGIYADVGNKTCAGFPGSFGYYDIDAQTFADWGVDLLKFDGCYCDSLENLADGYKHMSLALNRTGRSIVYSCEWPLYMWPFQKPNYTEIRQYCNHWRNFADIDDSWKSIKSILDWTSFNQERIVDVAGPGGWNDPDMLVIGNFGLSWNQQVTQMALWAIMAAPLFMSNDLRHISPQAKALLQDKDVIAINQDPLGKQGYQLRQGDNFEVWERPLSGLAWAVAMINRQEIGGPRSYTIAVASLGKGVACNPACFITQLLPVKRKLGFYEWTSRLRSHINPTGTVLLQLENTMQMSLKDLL
Rango release inh – qHTS Assay for Inhibitors of RanGTP induced Rango (Ran-regulated importin-beta cargo) - Importin beta complex dissociation | Potency, µM (series often up to 46.1 µM), for the others: at the top dose activity change, negative = inhibition | 340,000 tested, 0.071% active | Biochemical FRET Rango-importin beta, RanGTP-induced dissociation | Snurportin-1 (Homo sapiens) + GTP-binding nuclear protein Ran (Homo sapiens) + Importin …; active means falling FRET ratio curve, often poorly fitted, with flat reads before Ran was added; inconclusive means other falling curves, or compound fluorescence or quenching; inactive means flat or rising ratio curve;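 note: potency is the fitted concentration of half-maximal effect; % of control where 0% means no effect; nearly all actives have a fitted effect of over 45% in size; -100% = wells without RanGTP and RCC1; the record marks most hits as doubtful in a second field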
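FRET read at 45 min, room temperature: inhibitors block the CFP/YFP signal rise when RanGTP (0.6 uM Ran, 2 mM GTP, 0.2 uM RCC1) frees Rango (0.1 uM) from importin beta (0.25 uM). Pre-read after 5 min compound exposure flags interference.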
miR-21 reporter – qHTS Assay for Modulators of miRNAs and/orActivators of miR-21 | HeLa miR-21 FLuc reporter, luciferase, 48 h | Potency, µM (titrated, usually from 38.3 µM), without a hit: at the top dose reporter change, positive = more light | 340,000 tested, under 10 active; active = well fitted rising curve with a large enough effect; inconclusive = small, poorly fitted or top-dose-only effect; inactive = no such curve, though single readings can be large or run the other way;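 note: % of control where 0% means no effect; miR-21 action dims this reporter so a rising signal means less miR-21 action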
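Using DMEM plus 10% FBS, HeLa miR-21-FLuc cells are incubated with test compounds (final up to about 40uM) for 48 hours; firefly luciferase signal is then imaged following reagent-mediated lysis.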
Rango complex inh – qHTS Assay for Inhibitors of Rango (Ran-regulated importin-beta cargo) - Importin beta complex formation; Importin subunit beta-1 (Homo sapiens), Q14974; Rango CFP/YFP FRET sensor + importin beta, 45 min; Potency, µM (top dose mostly 92.2 µM), inactives show at the top dose inhibition of complex formation; 340,000 tested, 0.031% active; active = rising FRET ratio curve, often small or poorly fitted; inconclusive = mostly compound fluorescence or quenching in the first reads; inactive = flat curves in all reads;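 note: potency is the fitted concentration of half-maximal effect; 0% = DMSO wells and 100% = buffer wells lacking importin beta; nearly all actives have a fitted effect of over 15% in size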
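Inhibition scored from the CFP 486 nm/YFP 530 nm FRET ratio 45 min after adding 0.125 microM importin beta to 50 nM Rango biosensor preincubated 5 min with compound (room temperature, PBS with DTT, Tween-20, BSA). No-importin wells as positive control.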
Starred values were filed as active, the others as inactive; ? = inconclusive; nt = not tested or not shown; & = joins results of further samples. Only part of the results is shown, so the mix of outcomes need not match the whole.

entry	Structure	GLA inh pH 4.5	Rango release inh
1	Cc1cc(SCC(=O)OCC(=O)N2CCCC2=O)c(C)cc1Br	nt	-1%
2	CN(C(=O)c1cccc(NC(=O)Cc2ccc(NC(=O)C3CCN(C(=O)C4CCCC4)CC3)cc2)c1)C1CCCC1	nt	3%
3	CCOC(=O)C1CCN(C(=O)/C=C/c2cccs2)CC1	2	5%
4	Cc1ccc(CSCC(=O)N/N=C/c2sccc2C)cc1	1	2%
5	O=C(CNc1n[nH]c(=O)[nH]c1=O)N/N=C/c1cccnc1	5	5%
6	CCOC(=O)N1CCN(C(=O)c2cc3ccc(OC)cc3[nH]2)CC1	nt	-9%
7	O=C(CSc1nncn1-c1ccccc1F)NC1CC1	nt	4%
8	CCSc1nnc(NC(=O)c2ccc(Br)s2)s1	-10	11%
9	CCOC(=O)[C@H]1[C@H]2COc3ccccc3[C@@H]2N2C(=O)c3ccc(Cl)cc3NC(=O)[C@@]12C	nt	30%
10	CC(OC(=O)c1cccc(S(=O)(=O)N(C)C)c1)C(=O)NCc1ccc2c(c1)OCO2 (stereo unspecified)	nt	-4%
11	O=C(COC(=O)c1ccccc1NCCO)NNC(=O)c1cccs1	nt	4%
12	CCN1CCC(O)(/C=C/c2ccc(C(C)C)cc2)C(C(=O)/C=C/c2ccc(C(C)C)cc2)C1 (stereo unspecified)	nt	-24%

entry	miR-21 reporter	Rango complex inh
1	nt	-1.1%
2	nt	-4.1%
3	-38%	-3.2%
4	-11%	0.5%
5	-10%	-4.0%
6	-17%	?
7	nt	5.4%
8	-16%	?
9	nt	-1.2%
10	nt	6.8%
11	nt	-3.0%
12	nt	4.6%

Going on with the list:
entry	Structure	GLA inh pH 4.5	Rango release inh
13	Cc1occc1C(=O)NC(C)C(C)(C)C (stereo unspecified)	11	4%
14	COc1ccc(Cc2nc(C)cc(Cl)n2)cc1[N+](=O)[O-]	nt	-14%
15	O=C(O)c1ccc(N2C(=O)CCCC2=O)cc1	-4	12%
16	COCCNC(=O)c1onc(CSc2cc(C)cc(C)c2)c1C(=O)O	-5	-6%
17	COc1cc(/C=N/NC(=O)c2ccc3c(c2)OCCO3)c(Br)c(Br)c1O	nt	?
18	CC(=O)Oc1ccc(N(C(C)=O)S(=O)(=O)c2ccc(C)cc2C)c2ccccc12	nt	-2%
19	CCOc1cccc2sc(NC(=O)CC)nc12	0	18%
20	COc1ccccc1N1CCN(C(=O)NCc2cccc(C(F)(F)F)c2)CC1	nt	-13%
21	Cc1ccc(S(=O)(=O)CCSc2cccc(C(=O)O)c2)cc1	nt	12%
22	CCOC(=O)N(NC(=O)C(O)(c1ccccc1)c1ccccc1)c1ccccc1	6	-11%
23	CCN1CCN(Cc2ccc(NC(=O)c3ccc(C)c(NC(=O)N4CCNC4=O)c3)cc2C(F)(F)F)CC1	-8	15%&-11%
24	O=C(CN1CCN(Cc2ccccc2)CC1)Nc1ccc(N2CCOCC2)cc1	-14	21%

entry	miR-21 reporter	Rango complex inh
13	-1%	0.2%
14	0%	-0.9%
15	5%	?
16	-6%	-2.3%
17	-34%	?
18	?	-2.8%
19	4%	5.7%
20	0%	4.0%
21	-1%	0.0%
22	9%	3.9%
23	7%&-9%	-1.7%&0.1%
24	-13%	3.2%

The list continues.
entry	Structure	GLA inh pH 4.5	Rango release inh
25	CSc1nccc(Oc2ccc(C#N)cc2)n1	11	3%
26	CCCCOCCCNC(=O)N[C@@H](CCSC)C(=O)OC	0	5%
27	O=C(CSc1nc2ccccc2s1)N1c2ccccc2Sc2ccc(Cl)cc21	4	24%
28	CC(C)Cn1c(N)c(C(=O)CSc2nc3ccccc3n2C)c(=O)n(C)c1=O	2	-7%
29	S=c1[nH]nc(-c2ccco2)n1/N=C/c1cccc(Cl)c1Cl	0	2%
30	O=C1C2C3C=CC(C3)C2C(=O)N1c1ccc(-c2nc3ccccc3o2)cc1 (stereo unspecified)	-4	-26%
31	CCCN1Cc2cccc(C(=O)Nc3ccc(OC)c(OC)c3)c2C1=O	nt	-14%
32	COc1cccc(C=Nc2cc(C)cc(C)c2)c1O	1	0%
33	CCOCCOc1nc(C)cc(C)c1S(=O)(=O)c1ccccc1C	-5	-1%
34	N#CCCn1cc(C(=O)Nc2ccc([N+](=O)[O-])cc2)c(-c2cc3ccccc3o2)n1	-9	19%
35	Cc1ccccc1N(CC(=O)N/N=C/c1ccc(N(C)C)cc1)C(=O)c1ccccc1	-7	-7%
36	Cc1ccccc1-c1nnc(NC(=O)CSc2nc3ccccc3s2)s1	1	-9%

entry	miR-21 reporter	Rango complex inh
25	-19%	-0.1%
26	-2%	-4.1%
27	-4%	0.2%
28	-3%	2.5%
29	-11%	4.1%
30	-46%	-4.9%
31	nt	-0.7%
32	-1%	0.5%
33	-2%	-6.7%
34	-7%	0.3%
35	-4%	-0.1%
36	-17%	-1.1%

Further structures follow.
entry	Structure	GLA inh pH 4.5	Rango release inh
37	C=CCOc1ccc(CNCCc2ccc(S(N)(=O)=O)cc2)cc1	-14	13%
38	COC(=O)Cc1nnc(NC(=O)c2ccccc2)s1	-28	-4%
39	O=C(c1ccc(CSc2nc3ccncc3[nH]2)cc1)N1CCN(c2cccc(Cl)c2)CC1	-15	-3%
40	COc1ccc(CC(=O)N2CCC(c3ccccc3)C2)cc1 (stereo unspecified)	6	-8%
41	CCOCC(=O)NC1CCc2cc(OC)c(OC)c(OC)c2-c2ccc(SC)c(=O)cc21 (stereo unspecified)	nt	2%
42	CC(C)(C)c1nc(CN2CCOCC2)ccc1O	-3	-10%
43	CC(=O)c1ccc(N2CCN(C(=O)c3ccco3)C(C)C2)c(F)c1 (stereo unspecified)	-5	19%
44	Cc1ccc(CN(CC(=O)NC2CCCC2)C(=O)c2csnn2)cc1	nt	-2%
45	CC(C)C[C@H](NC(=O)N1CC(=O)Nc2ccccc21)C(=O)N[C@@H](C(=O)O)c1ccccc1	nt	9%
46	O=C(Nc1ccccc1)Nc1ccncc1	0	16%
47	CCOC(=O)c1c(C2COc3ccccc3O2)csc1N (stereo unspecified)	-2	-7%
48	COc1ccc(OC)c(N(CC(=O)Nc2ccc3c(c2)OCO3)S(=O)(=O)c2ccccc2)c1	-2	9%

entry	miR-21 reporter	Rango complex inh
37	-6%	8.8%
38	-18%	-5.1%
39	23%	-4.3%
40	-43%	-1.3%
41	nt	0.3%
42	2%	0.3%
43	-2%	-3.0%
44	2%	1.2%
45	0%	3.7%
46	-12%	-2.1%
47	-11%	2.2%
48	17%	-1.0%

The list goes on.
entry	Structure	GLA inh pH 4.5	Rango release inh
49	Cc1ccc(NC(=O)C(=O)NCc2ccncc2)cc1	7	-9%
50	CCOC(=O)N1CCN(C(=O)c2cnn3ccccc23)CC1	0	1%
51	Cc1cccc(C)c1NC(=O)c1cc(S(=O)(=O)N2CCOCC2)cn1C	nt	-1%
52	C[C@H](CO)N1C[C@H](C)[C@@H](CN(C)S(=O)(=O)c2ccc(F)cc2)Oc2c(NC(=O)Cc3ccccc3)cccc2C1=O	nt	10%

entry	miR-21 reporter	Rango complex inh
49	-10%	1.7%
50	-5%	2.5%
51	2%	-2.3%
52	nt	-0.1%

Nos. 35 through 49 of the list above:
entry	Structure	GLA inh pH 4.5	Rango release inh
35	Cc1ccccc1N(CC(=O)N/N=C/c1ccc(N(C)C)cc1)C(=O)c1ccccc1	-7	-7%
36	Cc1ccccc1-c1nnc(NC(=O)CSc2nc3ccccc3s2)s1	1	-9%
37	C=CCOc1ccc(CNCCc2ccc(S(N)(=O)=O)cc2)cc1	-14	13%
38	COC(=O)Cc1nnc(NC(=O)c2ccccc2)s1	-28	-4%
39	O=C(c1ccc(CSc2nc3ccncc3[nH]2)cc1)N1CCN(c2cccc(Cl)c2)CC1	-15	-3%
40	COc1ccc(CC(=O)N2CCC(c3ccccc3)C2)cc1 (stereo unspecified)	6	-8%
41	CCOCC(=O)NC1CCc2cc(OC)c(OC)c(OC)c2-c2ccc(SC)c(=O)cc21 (stereo unspecified)	nt	2%
42	CC(C)(C)c1nc(CN2CCOCC2)ccc1O	-3	-10%
43	CC(=O)c1ccc(N2CCN(C(=O)c3ccco3)C(C)C2)c(F)c1 (stereo unspecified)	-5	19%
44	Cc1ccc(CN(CC(=O)NC2CCCC2)C(=O)c2csnn2)cc1	nt	-2%
45	CC(C)C[C@H](NC(=O)N1CC(=O)Nc2ccccc21)C(=O)N[C@@H](C(=O)O)c1ccccc1	nt	9%
46	O=C(Nc1ccccc1)Nc1ccncc1	0	16%
47	CCOC(=O)c1c(C2COc3ccccc3O2)csc1N (stereo unspecified)	-2	-7%
48	COc1ccc(OC)c(N(CC(=O)Nc2ccc3c(c2)OCO3)S(=O)(=O)c2ccccc2)c1	-2	9%

entry	miR-21 reporter	Rango complex inh
35	-4%	-0.1%
36	-17%	-1.1%
37	-6%	8.8%
38	-18%	-5.1%
39	23%	-4.3%
40	-43%	-1.3%
41	nt	0.3%
42	2%	0.3%
43	-2%	-3.0%
44	2%	1.2%
45	0%	3.7%
46	-12%	-2.1%
47	-11%	2.2%
48	17%	-1.0%

entry	Structure	GLA inh pH 4.5	Rango release inh
49	Cc1ccc(NC(=O)C(=O)NCc2ccncc2)cc1	7	-9%

entry	miR-21 reporter	Rango complex inh
49	-10%	1.7%
